Screening results deposited in PubChem by several laboratories.
Mtb bLac sens: beta-lactam sensitization of Mtb H37Rv | hit rate 0.27% among 330,000 | inhibition, % at 25 µM | M. tuberculosis H37Rv growth with meropenem, percent inhibition; hits of this screen are not shown here;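 active = about 74% or more and at least 40 points above the plate without the antibiotic, then above 30% in a dose series; inconclusive = first-round hits that could not be retested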;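 note: growth measured after seven days incubation then overnight dye step; 0% = bacteria only wells and 100% = bacteria with antibiotic; twin plates without the antibiotic show which effects depend on it; some results filed as inactive read as strong as hits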
Arbovirus inh: arbovirus infection inhibition; hit rate 0.37% among 200,000; inhibition, % at 10 µM; arbovirus infection cell-based antiviral screen;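 active = inhibition from about 30%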;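 note: bluetongue infection of BSR cells; cell survival read as ATP light after 72 h; 0% = infected wells without compound and 100% = uninfected wells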
Mtb H37Rv: M. tuberculosis H37Rv growth inhibitors, H37Rv strain (AID 1626); M. tuberculosis H37Rv growth inhibition; higher % means a stronger effect; hit rate 0.95% among 220,000; inhibition, % at 10 µM; hits with a dose series show IC50 in µM;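 active = confirmed in a dose series; inconclusive = inhibition above 80% but not taken into the dose series; inactive = below 80% or under 30% at every dose of the series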;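 note: bacteria incubated seven days before Alamar blue readout; 0% = bacteria only wells and 100% = bacteria with antibiotic wells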
YopH inh: YopH (Yersinia) phosphatase inhibition; fluorescence Ex485/Em525; inhibition, %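 (about 10 µM by stock and volumes)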; hit rate 0.16% among 140,000;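 active = inhibition of 50% or more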;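 note: controls were vehicle for no effect and minimum signal wells for full effect; inactives centre near -20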
RecA intein inh: Mtb RecA intein splicing inhibition; P9WHJ3; cell-free RecA intein splicing, fluorescence; inhibition, %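 (about 9 µM by stock and volumes)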; hit rate 0.75% among 290,000; AID 2221; in the data active = inhibition above about 30%; inconclusive = no clear call, values can overlap the other calls;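 note: 0% = vehicle wells and 100% = reference inhibitor control wells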
Target sequence (P9WHJ3 whole entry, looked up): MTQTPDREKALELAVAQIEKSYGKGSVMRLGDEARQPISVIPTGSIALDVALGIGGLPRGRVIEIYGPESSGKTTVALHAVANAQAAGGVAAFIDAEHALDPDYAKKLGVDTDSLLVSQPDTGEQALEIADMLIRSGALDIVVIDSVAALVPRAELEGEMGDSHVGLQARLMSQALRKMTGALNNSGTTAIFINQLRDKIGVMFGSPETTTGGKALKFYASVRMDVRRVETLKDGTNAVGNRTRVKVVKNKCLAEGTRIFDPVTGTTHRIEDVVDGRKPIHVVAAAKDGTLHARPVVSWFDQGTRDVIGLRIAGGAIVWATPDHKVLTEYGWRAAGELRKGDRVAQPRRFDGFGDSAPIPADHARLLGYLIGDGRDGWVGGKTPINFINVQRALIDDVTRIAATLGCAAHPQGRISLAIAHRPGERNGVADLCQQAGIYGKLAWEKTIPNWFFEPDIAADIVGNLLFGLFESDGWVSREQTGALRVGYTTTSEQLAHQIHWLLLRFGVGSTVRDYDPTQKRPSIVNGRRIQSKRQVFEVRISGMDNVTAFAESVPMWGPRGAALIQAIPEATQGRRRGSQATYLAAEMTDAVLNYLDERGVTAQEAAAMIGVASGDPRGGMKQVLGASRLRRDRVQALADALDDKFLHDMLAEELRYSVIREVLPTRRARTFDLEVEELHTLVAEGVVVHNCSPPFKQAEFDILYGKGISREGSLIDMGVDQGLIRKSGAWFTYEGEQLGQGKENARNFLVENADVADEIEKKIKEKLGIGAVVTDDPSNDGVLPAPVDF
Arbovirus inh repeat: recorded beside Arbovirus inh, whose call it bears; inhibition, %; measured here: 10K subset replicate screen; many hits read low in the repeat;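 first of two repeat runs on a subset; 0% = infected and 100% = uninfected wells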
The depositor's hits bear a star; u = inconclusive; x = not tested or not shown.

SMILES | Mtb bLac sens | Arbovirus inh | Mtb H37Rv | YopH inh | RecA intein inh | others
CCN(CC)C(=O)COc1ccc(Br)cc1Cl | 4 | -1 | -12% | -20 | 3.2
COc1ccc(CN2C(=O)C(Cc3ccccc3)Nc3ncnc(N4CCOCC4)c32)cc1 (stereo unspecified) | -6 | x | x | x | 0.5
COc1ccc(N(C(=O)CNC(=O)c2ccco2)C(C(=O)NC2CCCCC2)c2cccnc2)cc1 (stereo unspecified) | -1 | x | x | x | 3.6
Cc1cc(C)cc(OCC(=O)OCC(=O)c2ccc3c(c2)NC(=O)CO3)c1 | 64 | 4 | 1% | -20 | -1.3
Cc1cc(O)c(C(=O)/C=C/c2c(F)c(F)c(F)c(F)c2F)c(=O)o1 | 48 | x | x | x | 13
O=C(COC(=O)CNS(=O)(=O)c1ccccc1)NC12CC3CC(CC(C3)C1)C2 | -1 | -7 | 5% | x | -3.7
Cc1nc2ccccn2c1P(=Nc1ccccc1)(N(C)C)N(C)C | -10 | 12 | 1% | -18 | 0.5
COc1ccc2c(Cl)c(C(=O)NCc3ccco3)sc2c1 | 18 | 2 | 5% | -29 | 0.6
Cc1ccc(S(=O)(=O)NCC2CCC(C(=O)NCCCN3CCOCC3)CC2)cc1 (stereo unspecified) | 1 | -7 | -9% | -36 | 1.0
CCN(CCn1cccn1)Cc1cn[nH]c1-c1ccc(-c2ccccc2)cc1 | 13 | -32 | 7% | x | 4.4

For reference, part of the list above:
SMILES | Mtb bLac sens | Arbovirus inh | Mtb H37Rv | YopH inh | RecA intein inh | others
Cc1cc(O)c(C(=O)/C=C/c2c(F)c(F)c(F)c(F)c2F)c(=O)o1 | 48 | x | x | x | 13
O=C(COC(=O)CNS(=O)(=O)c1ccccc1)NC12CC3CC(CC(C3)C1)C2 | -1 | -7 | 5% | x | -3.7
Cc1nc2ccccn2c1P(=Nc1ccccc1)(N(C)C)N(C)C | -10 | 12 | 1% | -18 | 0.5
COc1ccc2c(Cl)c(C(=O)NCc3ccco3)sc2c1 | 18 | 2 | 5% | -29 | 0.6
Cc1ccc(S(=O)(=O)NCC2CCC(C(=O)NCCCN3CCOCC3)CC2)cc1 (stereo unspecified) | 1 | -7 | -9% | -36 | 1.0
CCN(CCn1cccn1)Cc1cn[nH]c1-c1ccc(-c2ccccc2)cc1 | 13 | -32 | 7% | x | 4.4

Next part:
SMILES | Mtb bLac sens | Arbovirus inh | Mtb H37Rv | YopH inh | RecA intein inh | others
Cn1cc(Br)c(NC(=O)/C=C/C(=O)O)n1 | 2 | x | -1% | x | -0.9
Cc1cccc(N/C(N)=N/c2nc(C)cc(=O)[nH]2)c1 | -1 | -1 | -1% | x | 1.6
COc1ccc(C2=[N+]([O-])C(C)(C)C(c3ccccc3)=N2)cc1 | 5 | -11 | -9% | x | -1.9
N#C/C(=C/c1cn(-c2ccccc2)nc1-c1cccc(OCc2ccc(F)cc2)c1)C(=O)NCCCn1ccnc1 | 100 | -37 | 4.2µM* | -17 | 18
Cc1ccc(CNC(=S)Nc2ccc(OC(F)F)cc2C)cc1 | 0 | 7 | 2% | -20 | 1.4
O=C(NC1CCCCCCC1)C1CCC(CNc2c(N3CCCC3)c(=O)c2=O)CC1 (stereo unspecified) | 4 | 0 | -1% | -25 | 0.2 | Arbovirus inh repeat=1
Cc1ccc(OCC(=O)Nc2ccc3c(c2)OCO3)c(C)c1 | 20 | -6 | -18% | x | 0.1
Cc1cc2[nH]c(=O)c(=O)[nH]c2cc1S(=O)(=O)Nc1cccc(Cl)c1C | u | x | x | x | 0.5
CCOC(=O)c1ccc(NC(=S)N(CCCN2CCN(CC)CC2)Cc2ccco2)cc1 | -2 | -5 | 20% | x | 0.3
O=C(COC(=O)c1cc(S(=O)(=O)N2CCCCC2)ccc1N1CCOCC1)NCCc1ccc(F)cc1 | -5 | 5 | 0% | x | 0.9
O=C(NCc1ccco1)C(=S)N1CCCC1 | -5 | -4 | -7% | x | 1.2
Cc1cc(=O)[nH]c(N/N=C/c2c(C)oc3ccccc23)n1 | -5 | 2 | 4% | x | 0.3
Cc1ccc(S(=O)(=O)NCC(c2cccnc2)N(C)C)cc1 (stereo unspecified) | 0 | 0 | -3% | -8 | -2.2
O=C(C1CCN(S(=O)(=O)N2CCOCC2)CC1)N1CCN(Cc2ccc3c(c2)OCO3)CC1 | x | 1 | -1% | -47 | x
Cc1cccc(NC(=O)c2ccc(Cl)c(S(=O)(=O)N3CCCC3)c2)n1 | -7 | x | x | x | 0.7
Cc1nnc(NC(=O)CCSc2ccccc2)s1 | -12 | 1 | -6% | -1 | -2.3
O=c1c2cn[nH]c2[nH]c(=S)n1-c1cccc(Cl)c1 | -5 | 2 | 2% | -10 | 0.7
COc1ccc(-c2cnc3c(c2)CCC3(C#N)C#N)cc1 | 80 | 7 | 67% | -32 | 13
OC(COc1ccc(F)cc1Cl)CN1CCC(Cc2ccccc2)CC1 (stereo unspecified) | 11 | x | x | x | 5.2
COc1ccc(C)c2sc(N(CCN(C)C)C(=O)/C=C/c3cccs3)nc12 | 98 | x | x | x | -0.3
CSc1ccc(S(=O)(=O)NCc2ccccc2)cc1 | 73 | 4 | 16% | -4 | 0.8
FC(F)(F)c1cc(Oc2ccccc2Cl)nc(-c2ccccn2)n1 | -10 | -6 | 13% | -28 | 3.7
COCc1nnc(NS(=O)(=O)c2ccc(Br)cc2)s1 | -3 | 2 | 0% | -22 | 0.7
Cc1ccc(NCc2ccccc2F)cc1 | 9 | 2 | -2% | -13 | 1.6
COc1ccc(/C=C/C2=CCN(C)CC2)cc1 | 0 | -27 | -3% | x | -0.3
Cc1onc(-c2ccccc2)c1C(=O)N1CCCN(C(=O)c2c(-c3ccccc3)noc2C)CC1 | 2 | 4 | -1% | -9 | -0.8
CCn1cc(S(=O)(=O)CC(=O)Nc2cc(C)ccc2C)c2ccccc21 | 1 | 3 | 6% | -5 | -2.0 | Arbovirus inh repeat=4
CCCn1c(O)c(CN2CCCCC2)c(C)c(C#N)c1=O | 0 | 6 | -2% | -39 | 1.1
CC1COc2ccccc2N1S(=O)(=O)c1cc(Cl)ccc1Cl (stereo unspecified) | 1 | x | x | x | 15
CCC(CO)Nc1ccc(-c2n[nH]c(=O)c3ccccc23)cc1[N+](=O)[O-] (stereo unspecified) | -3 | x | x | x | 0.7
Nc1nc(N2CCN(C(c3ccccc3)c3ccccc3)CC2)n[nH]1 | -6 | -5 | 1% | x | -9.1
N#Cc1c(N)nc2c(c1N)CC(C(F)(F)F)O2 (stereo unspecified) | -6 | 7 | 1% | x | x
O=C(Oc1ccccc1F)C1CCN(C(=O)c2ccc(F)cc2)CC1 | 29 | x | x | x | 9.3
Cc1ccc(C(=O)c2cn(-c3ccc(F)c(Cl)c3)nn2)cc1 | -13 | -8 | 1% | -51 | 2.5
CCCc1cc(=O)[nH]c(SCC(=O)c2ccc3c(c2)OCCO3)n1 | 0 | 4 | 8% | -16 | -1.1
O=S(=O)(NCCN1CCCC1)c1ccc(Br)cc1 | -6 | x | x | x | 1.4
COc1ccc(-n2c(SCC(=O)Nc3ccc(NC(C)=O)cc3)nc3c([nH]c4ccccc43)c2=O)cc1OC | -13 | x | x | x | 2.7
Cc1ccc(C(=O)Nc2nc(-c3cccnc3)cs2)o1 | -4 | 8 | 8% | -18 | 0.9
O=C(N/N=C\c1ccc2c(c1)OCO2)c1cncc(Br)c1 | 60 | x | x | x | -2.8
CCCCc1c(O)n2c(nc3ccccc32)[nH]c1=O | -1 | -2 | 4% | 2 | -1.3

A draw from above in order of SMILES length, lowest first.
SMILES | Mtb bLac sens | Arbovirus inh | Mtb H37Rv | YopH inh | RecA intein inh | others
O=S(=O)(NCCN1CCCC1)c1ccc(Br)cc1 | -6 | x | x | x | 1.4
O=C(Oc1ccccc1F)C1CCN(C(=O)c2ccc(F)cc2)CC1 | 29 | x | x | x | 9.3
Nc1nc(N2CCN(C(c3ccccc3)c3ccccc3)CC2)n[nH]1 | -6 | -5 | 1% | x | -9.1

Next part.
SMILES | Mtb bLac sens | Arbovirus inh | Mtb H37Rv | YopH inh | RecA intein inh | others
O=C(O)c1ccc(CN(c2ccccn2)S(=O)(=O)c2ccccc2)cc1 | 4 | 0 | -3% | -41 | -1.1
O=C1Nc2ccc(F)cc2C12Nc1ccccc1-c1nnc(SCc3ccccc3F)nc1O2 (stereo unspecified) | -2 | 9 | -1% | -18 | 7.3
CC1=CC(C)(C)N(C(=O)CNC2CCCC2)c2cc(C)ccc21 | 2 | 12 | -9% | x | -0.3
COc1ccccc1CN1C[C@@H]2C[C@@H](c3ccc(Cl)cc3)N3CCC[C@@]23C1=O | -6 | -12 | -1% | x | 6.2
CC[C@@]1(c2cccc(C)c2)C(=O)N(C(=O)OC)N1C(=O)OC | -7 | x | x | x | 0.0
COc1cccc(/C=C2\SC(=S)N(CC(=O)N(C)C3CCS(=O)(=O)C3)C2=O)c1 (stereo unspecified) | -10 | x | x | x | 0.0
CC(=O)c1ccc(N=Nc2c(C)[nH][nH]c2=O)cc1 | -6 | x | x | x | 5.6
CCOc1cc(/C=C2\C(=N)N3N=C(N4CCCCC4)SC3=NC2=O)ccc1OC(=O)c1ccco1 | 74 | x | x | x | 35*
Cc1cc(NC(=O)c2cc(C)on2)no1 | x | -3 | -1% | -3 | -0.6
Cc1ccccc1NC(=O)CSc1nc(=O)n(CCN2CCOCC2)c2c1CCCC2 | -2 | x | x | x | -3.1
C[C@H]1O[C@@H](OC2CC[C@]3(C=O)[C@H]4CC[C@]5(C)[C@@H](C6=CC(=O)OC6)CC[C@]5(O)[C@@H]4CC[C@]3(O)C2)CC2OC(C)(C)OC21 (stereo partly specified) | -6 | x | x | x | 0.3
O=C(CN1CCN(S(=O)(=O)c2cc(Cl)ccc2Cl)CC1)Nc1ccc2c(c1)OCCO2 | 97 | -22 | 5% | -37 | 3.5
CCOC(=O)c1nn(-c2ccccc2)c2nc(-c3ccc(OC)cc3)c(C#N)c(=O)n12 | -7 | -7 | 3% | -23 | 0.0
Cc1cc(C(F)(F)F)nc(SCC(=O)Nc2ccccc2)n1 | 4 | -6 | -16% | -13 | -1.1
Cc1ccnc(NCc2ccc(Br)cc2)c1 | 4 | x | x | x | 0.8
CCCOc1ccc(C2c3c(oc4cc(C)c(C)cc4c3=O)C(=O)N2CCCN2CCOCC2)cc1 (stereo unspecified) | 3 | 13 | -2% | -27 | 4.8 | Arbovirus inh repeat=0
Cc1cccc(/C(N)=N/OC(=O)c2ccc(F)cc2)c1 | 14 | -4 | 2% | -10 | 0.1
Cc1ccc(OCC(=O)NC(=S)Nc2cccc(C)n2)cc1 | 5 | 4 | 3% | -15 | -2.5
COc1ccc(CCNC(=O)c2cccn2C)cc1 | 7 | x | x | x | 0.7
C=CCn1c(COc2cccc(C)c2)nnc1SCC(=O)c1c[nH]c2c(CC)cccc12 | 6 | 6 | 1% | -22 | -0.5
COC(=O)C1C(=O)CC(C)(O)C(C(=O)OC)C1c1ccc2c(c1)OCO2 (stereo unspecified) | 1 | 3 | 0% | -41 | x | Arbovirus inh repeat=2
COc1ccc(C(=O)C[N+]2(C)CCOCC2)cc1 | -1 | -1 | 1% | 4 | x
CC(C)C(=O)NC(=S)NCC(=O)c1ccccc1 | 6 | -6 | x | -38 | -1.4
CC(=O)NC(Cc1ccccc1F)C(=O)NC1CCN(c2ncccc2[N+](=O)[O-])CC1 (stereo unspecified) | -1 | 1 | -7% | x | -0.2
COc1ccc(C(C(=O)NCC2CCCO2)N(C(=O)Cn2nnc3ccccc32)c2ccc(NC(C)=O)cc2)cc1 (stereo unspecified) | 5 | x | x | x | 1.4
NS(=O)(=O)c1ccc(CCNC(=O)CSc2nc3ccccc3c(=O)n2CCN2CCOCC2)cc1 | -9 | 6 | -2% | x | 0.4
Cc1nn(CC(C)C)c(Cl)c1C(=O)N(C)CC(=O)Nc1c(Cl)cccc1Cl | -12 | x | x | x | -2.2
Cc1cccc(-n2ccc(=O)c(C(=O)Nc3ccc(S(=O)(=O)Nc4nccs4)cc3)n2)c1 | 3 | x | x | x | -1.7
CCOc1ccc(C(=O)Nc2cc(-c3nc4ccccc4[nH]3)ccc2C)cc1[N+](=O)[O-] | 0 | -5 | 27% | -8 | 0.5
CCCSc1ccc([C@@H]2[C@H]3C(=O)N(CC)C(=O)[C@H]3[C@]3(C(=O)OC)CCCCN23)cc1OC | -2 | x | x | x | -4.0
Cc1cc(C)nc(NCC(O)CNc2ccccc2Cl)n1 (stereo unspecified) | 10 | 5 | 5% | -26 | x
CCc1cc(-c2[nH]ncc2-c2nc3ccccc3n2C)c(O)cc1O | -9 | x | 6% | x | -2.6
O=C1NCN(CCO)CN1 | -1 | x | -4% | x | -7.3
CCOC(=O)C1=C(C)OC(N)=C(C(=O)OC)C12C(=O)Nc1ccc(Br)cc12 (stereo unspecified) | 9 | -6 | -5% | -34 | -0.7
Cc1ccc(N2C(N)=C(C#N)C(c3cccnc3)C3=C2CCCC3=O)cc1 (stereo unspecified) | 0 | 10 | 4% | -38 | 4.4

A portion of the library; count on the stated rates, not on these rows.
